eIF4H inh: human eIF4H binding inhibitors, primary screen, translation initiation inhibitor project, biochemical, uHTS, fluorescence polarization | 0.94% of 290,000 active | inhibition, % at 35 µM | eIF4H fluorescence polarization binding assay;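 active = 50% or more with normal probe brightness, or confirmed in later tests; inconclusive = above 50% with abnormal brightness, or retests that disagree; inactive = below 50% or failed in later tests; about a fifth of its hits are not listed in these tables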;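 note: calls also rest on retests at 20 µM and on dose response follow-up; 0% = protein and probe with vehicle and 100% = probe without protein; strong numbers were not always called active; many hits fall short of the cut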
Rce1 inh: yeast Rce1p protease inhibitors, primary screen, biochemical, fluorescence, cell-free homogeneous; CAAX prenyl protease 2 (Saccharomyces cerevisiae (strain ATCC 204508 / S288c)), Q03530; yeast membranes, quenched prenylated peptide cleavage fluorescence; calls only; 0.27% of 290,000 active;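 active = fall in fluorescence gain of 50% or more versus controls, with final raw signal at or below 3038400; inconclusive = same 50% fall but final raw signal above 3038400; inactive = fall in fluorescence gain under 50%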;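 note: plate controls were neutral control wells for no effect and wells lacking membranes for full effect; tested at 10 µM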
Target sequence (Q03530 whole entry, looked up): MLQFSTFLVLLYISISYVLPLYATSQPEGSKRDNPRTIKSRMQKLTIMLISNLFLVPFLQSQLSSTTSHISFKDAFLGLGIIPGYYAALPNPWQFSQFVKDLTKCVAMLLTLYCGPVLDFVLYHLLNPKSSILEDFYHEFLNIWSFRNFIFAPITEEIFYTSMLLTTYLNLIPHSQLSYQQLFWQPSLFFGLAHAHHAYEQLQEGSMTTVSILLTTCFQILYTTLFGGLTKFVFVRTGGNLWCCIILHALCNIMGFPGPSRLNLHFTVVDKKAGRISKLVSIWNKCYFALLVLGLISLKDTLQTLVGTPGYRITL
PABP polyA inh: PABP poly(A) RNA binding inhibitors, primary screen, biochemical, fluorescence polarization, uHTS | Polyadenylate-binding protein 1 (Homo sapiens), P11940 | inhibition, % at 35 µM | 1% of 290,000 active | AID 2014, 2009;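 active = 50% or more with normal probe brightness, or confirmed in later tests; inconclusive = above 50% with abnormal brightness, or retests that disagree; inactive = below 50% or failed in later tests; about a fifth of its hits are not listed in these tables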;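 note: calls also rest on retests at 20 µM and on dose response follow-up; controls were probe without protein and protein plus probe with vehicle; some compounds called inactive have numbers as strong as hits; many hits fall short of the cut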
Target sequence (P11940 whole entry, looked up): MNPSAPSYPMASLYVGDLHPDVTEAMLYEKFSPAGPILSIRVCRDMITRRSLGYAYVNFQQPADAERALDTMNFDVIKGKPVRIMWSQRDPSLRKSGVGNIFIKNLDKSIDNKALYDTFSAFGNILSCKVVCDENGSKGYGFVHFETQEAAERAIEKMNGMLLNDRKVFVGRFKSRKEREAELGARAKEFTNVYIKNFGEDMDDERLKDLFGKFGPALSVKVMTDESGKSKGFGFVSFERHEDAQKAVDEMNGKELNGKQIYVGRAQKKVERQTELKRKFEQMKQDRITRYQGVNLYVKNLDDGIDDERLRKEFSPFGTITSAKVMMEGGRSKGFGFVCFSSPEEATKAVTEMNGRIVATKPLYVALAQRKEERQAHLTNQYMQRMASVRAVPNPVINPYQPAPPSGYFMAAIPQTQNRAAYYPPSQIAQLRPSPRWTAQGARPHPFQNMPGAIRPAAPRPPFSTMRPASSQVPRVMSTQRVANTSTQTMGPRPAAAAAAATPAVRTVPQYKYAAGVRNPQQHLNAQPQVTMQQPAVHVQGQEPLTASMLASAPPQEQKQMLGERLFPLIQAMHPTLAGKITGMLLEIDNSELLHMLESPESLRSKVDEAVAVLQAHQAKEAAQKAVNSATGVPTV
HIV Env fusion: inhibitors of HIV-1 Env-driven cell-cell fusion, primary screen, HeLa-JRFL effector, CEM21 target cells, luciferase. 1.1% of 360,000 active. inhibition, % at 12.3 µM;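 active = mean replicate inhibition score of at least 50 and every replicate individually at or above 50; inconclusive = only one of the two criteria met; inactive = mean below 50 and not all replicates reaching 50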;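 note: 0% = plate neutral controls and 100% = maraviroc near 300 nM; one replicate is shown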
CSC inhib: cancer stem cell viability inhibitors, primary screen, luminescence; 1.1% of 300,000 active; inhibition, % at 7.5 µM; cancer stem cell-like cells viability;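 active = mean at 75% or more and at least half the replicates too; inconclusive = mean and replicates disagree; tested in HMLE shEcad cells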;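 note: 0% = median of negative and 100% = median of positive control wells; the first replicate is given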
Yeast UUG start: modulators of yeast start codon fidelity, primary screen, whole organism, S. cerevisiae, single point, plate reader; 0.13% of 350,000 active; S. cerevisiae UUG-firefly luciferase reporter, luminescence/redox ratio; AID 602363, 2012; activity score, % at 18.7 µM;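 active = replicate mean at a twofold rise or more, about +100% in these data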;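 note: firefly luciferase made from a UUG start codon reports start codon fidelity; reporter light over untreated wells divided by growth signal over untreated wells; some hits fall short of that in this replicate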
MT1-MMP act inh: blockers of MT1-MMP proenzyme processing, primary screen, HT1080 RFP-PRO-GFP cells, GFP/RFP fluorescence; GFP/RFP ratio fluorescence, overnight; percent of plate control window, DMSO zero; GFP/RFP ratio change, % at 20 µM; 0.061% of 360,000 active; AID 651647, 2012;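 active = GFP/RFP ratio change of at least 30% with cell ATP level not reduced by more than half and red fluorescence within 50% of control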; note: strong numbers were not always called active
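Material – HT1080 RFP-PRO-GFP cells · Control set – DMSO wells and RFP-L50D-GFP cells · Incubation – overnight cell settling, then overnight compound exposure, 37 °C, 5% CO2 · Compound dosing – single-point 20 µM compound, 1% DMSO · Read-out – GFP/RFP fluorescence ratio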
eIF4H inh retest: recorded beside eIF4H inh, whose call it bears; inhibition, %; compound at 20 µM; confirmation average;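 mean of two retest wells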
PABP polyA inh retest: second read-out of PABP polyA inh, no call of its own (marks repeat the call); inhibition, %; compound at 20 µM; confirmation repeats;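 mean of two retest wells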
MT1-MMP act inh RFP: recorded beside MT1-MMP act inh, whose call it bears; RFP signal change, %; measured here: RFP expression control read;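 0 = vehicle wells; hits needed this value within 50% of zero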
* hit, by the source's call; i = inactive; ? = inconclusive; nt = not tested or not shown; & = joins results of further samples. These rows are one share of the data. The share of hits here may be higher or lower than overall.

SMILES	eIF4H inh	Rce1 inh	PABP polyA inh	HIV Env fusion	CSC inhib	Yeast UUG start	MT1-MMP act inh	MT1-MMP act inh RFP	others
CCN1CCN(C(=O)COc2ccc(S(=O)(=O)Nc3ccc(Cl)cc3)cc2)CC1	-3	i	-6	14	50	-12	1	-2
COc1ccc(CCn2c(O)c(/C=N/N3CCOCC3)c(=O)[nH]c2=O)cc1OC	-9	i	5	11	nt	-16	4	-4
O=C1NC(=O)C(=Cc2ccc(Oc3ccc([N+](=O)[O-])cc3)cc2)C(=O)N1	-11	i	0	nt	0	nt	5	3
O=C(Cc1c(Cl)cccc1Cl)N1CCN(Cc2ccccc2)CC1	-2	i	-3	-1	-12	-21	6	0
CCCn1c(C(=O)c2ccccc2)nc2ccccc21	-6	i	1	-8	9	-17	-1	2
Cc1ccc(CNC2=NCCS2)cc1	-1	i	3	-16	-4	nt	3	0
COc1ccc(-n2c(-c3ccccc3)nc3ccccc3c2=O)cc1	-5	i	-6	-3	10	nt	-7	-6
COc1cccc(NC(=O)[C@@H](NC(=O)N2C[C@H]3C[C@@H](C2)c2cccc(=O)n2C3)C(C)C)c1	2	nt	5	nt	-9	-8	1	5
CCC1(c2ccccc2)C(=O)N(COC)C(=O)N(COC)C1=O	-3	i	0	nt	nt	1&-5	3	5
Clc1cccc(N2CCNCC2)c1	nt	i	nt	-18	-5	-20	-3	-2

Reprinted at random: 3 entries already listed.
SMILES	eIF4H inh	Rce1 inh	PABP polyA inh	HIV Env fusion	CSC inhib	Yeast UUG start	MT1-MMP act inh	MT1-MMP act inh RFP	others
Clc1cccc(N2CCNCC2)c1	nt	i	nt	-18	-5	-20	-3	-2
COc1cccc(NC(=O)[C@@H](NC(=O)N2C[C@H]3C[C@@H](C2)c2cccc(=O)n2C3)C(C)C)c1	2	nt	5	nt	-9	-8	1	5
CCN1CCN(C(=O)COc2ccc(S(=O)(=O)Nc3ccc(Cl)cc3)cc2)CC1	-3	i	-6	14	50	-12	1	-2

Other entries
SMILES	eIF4H inh	Rce1 inh	PABP polyA inh	HIV Env fusion	CSC inhib	Yeast UUG start	MT1-MMP act inh	MT1-MMP act inh RFP	others
CCSc1nnc([C@@H](N)Cc2ccccc2)o1	-5	nt	-5	-2	nt	-5	2	4
CCC(COC(=O)c1cc(OC)c(OC)c(OC)c1)(c1ccccc1)N(C)C (stereo not given)	-11	i	-9	-1&15	52&61	1&14&-11	1&-2	-1&0
CC/C(=N\NC(=O)c1ccccc1O)c1c(O)n(C2CCCCC2)c(=O)[nH]c1=O	6	i	3	3	14	-21	0	-1
O=C1NC(=O)N(c2ccc(Cl)cc2)C(=O)/C1=C/c1coc2ccc(O)cc2c1=O	42	i	8	-88	-12	-5	1	4
Cc1cc(CN(C)C)c(OC(=O)N(C)C)cc1C	-6	i	-6	-63	-11	-14	3	2
COc1ccc(-c2nn(CCC#N)cc2C(=O)Nc2ccccc2Cl)cc1	-12	i	-3	8	5	0	1	-4
Cc1nnc2ccc(N3CCN(C)CC3)nn12	0	i	6	nt	nt	nt	2	2
COc1ccc(C(=O)OC2CC[C@@]3(C)C4CCC5[C@]6(O)CC(O)[C@@]7(O)C(CN8CC(C)CCC8[C@@]7(C)O)[C@]6(O)C[C@@]53O[C@]24O)cc1OC (stereo not given in full)	0	i	4	2	16	-11	3	2
CCN(CC)C(=O)COc1cc(C)cc2oc(=O)c3c(c12)CCCC3	-6	i	9	-17	nt	0	5	-1
Clc1ccc2[nH]c3c(c2c1)CCNC3	-9	i	-7	17	-7	-29	2	-1
Oc1c(Br)c(Br)c(Br)c(Br)c1Br	nt	nt	nt	nt	101*	-8	1	-2
O=C(Cc1cccs1)N1CCC2(CC1)OCCO2	-6	i	4	nt	-9	-10	-2	-3
CC(NC(=O)N1CC1(C)C)c1ccccc1 (stereo not given)	nt	nt	nt	18	nt	1	0	3
Cc1cc(NC(=O)COC(=O)c2c(C)nn(Cc3ccccc3Cl)c2Cl)no1	-10	i	0	nt	-1	nt	3	5
CS(=O)(=O)c1ccc(C2=C(CNC(=O)c3cccnc3)[C@H]3CC[C@@H](C2)N3Cc2ccccc2)cc1	nt	nt	nt	21	nt	6	-4	7
COC(=O)C1=C(c2ccc3ccccc3c2)C[C@@H]2CC[C@H]1N2C(=O)NCc1ccc(F)cc1	nt	nt	nt	-1	30	-6	2	-12
O=c1[nH]c(=O)n(Cc2ccco2)c(O)c1/C=N/N1CCCCC1	0	i	-7	1	-4	nt	-6	4
CCOc1ccc(CN2CCCC(C(=O)c3ccccc3OC)C2)cc1 (stereo not given)	5	i	1	8	-1	-9	1	0
CC(=O)N1N=C(c2c(O)n(C)c(=O)n(C)c2=O)CC1c1ccccc1 (stereo not given)	6	i	-4	22	34	nt	8	4
O=c1cccc2n1C[C@H]1C[C@@H]2CN2CCCC[C@@H]12	-1	i	5	5	-14	-23	-6	-1
COP(=O)(OC)C(NC(=O)c1ccc(C)cc1)C(Cl)(Cl)Cl (stereo not given)	-4	i	-6	2	-4	nt	2	0
CN(C)C1=NP(N(C)C)(N(C)C)=NC(c2ccccc2)=N1	-7	i	-10	-15	-3	1	3	2
CCN1C(=O)C(=Cc2ccc(C)s2)C(=O)N(CC)C1=S	2	i	-11	-11	11	nt	-20	30
COC(=O)C1=C(c2ccc(S(C)(=O)=O)cc2)C[C@@H]2CC[C@H]1N2C(=O)NC(C)C	nt	i	nt	8	1	-6	1	3
Cc1ccc(N)cc1Cl	nt	nt	nt	-4	nt	-4	-1	3
CCCCn1c(O)c(/C(CC)=N/N2CCCCC2c2cccnc2)c(=O)[nH]c1=S (stereo not given)	16	i	-2	-7	-11	-21	-12	-8
Cn1cc(NC(=O)CCl)cn1	1.5*	i	68	14	-10	nt	1	-2	eIF4H inh retest=64*;PABP polyA inh retest=-1
CCC1CCCCN1P(=O)(c1ccc(C)o1)C(C)(C)C (stereo not given)	-11	i	-11	nt	-2	-17	-6	-2
CCN(C(=O)Oc1ccccc1)c1ccc(C(O)(C(=O)OC)C(F)(F)F)cc1 (stereo not given)	-1	i	0	nt	3	nt	0	1
COc1ccc(-n2c(CNCCc3ccc(C)cc3)nc3ccccc3c2=O)cc1	-9	i	-12	-168	-5	-11	-2	0
CCN(CC)C(=O)c1ccc(NC(=O)c2c(C)noc2C)cc1	nt	nt	nt	nt	-10	-5	10	2
CCOC(=O)C1(CCc2ccccc2)CCN(Cc2cccc3c2OCO3)CC1	-3	i	1	7	50	nt	1	-10
Cc1cc([N+](=O)[O-])c2ccccc2[n+]1[O-]	1	i	15	nt	32	nt	-21	-17
CCOC(=O)c1c(C)n(Cc2ccccc2)c2ccc(OCC(O)Cn3nc(C)cc3C)cc12 (stereo not given)	1	nt	4	nt	17	-10	-4	-8
OC12ONC(c3ccccn3)C1N1CCC2CC1 (stereo not given)	53	i	-3	3	-10	-21	-7	-12	eIF4H inh retest=0;PABP polyA inh retest=-1
O=P(O)(O)C12CC3CC(CC(C3)C1)C2	-9	i	7	-114	nt	nt	5	6
CC(=O)c1ccc2c(c1)C1C(Cl)C(Sc3ccccc3[N+](=O)[O-])CC1C(c1ccccc1[N+](=O)[O-])N2 (stereo not given)	49	i	-7	-144	10	-3	-12	-14
O=C1NC(=O)C(CCc2ccncc2)(Cc2ccc([N+](=O)[O-])cc2)C(=O)N1	0	i	-2	-43	-4	nt	-1	1
Cc1ccc(CN2CCC3CCC(C3)C2)c(O)c1 (stereo not given)	nt	nt	nt	-16	nt	-13	-1	0
Cc1ccc(-n2c(O)c(C=NCc3ccccn3)c(=O)[nH]c2=S)cc1	3	i	9	1	0	nt	-3	0
OC(CN1CCCCC1)c1c[nH]c2ccccc12 (stereo not given)	-2	i	-6	14	0	-12	-6	-1
O=Cc1cn(Cc2ccccc2[N+](=O)[O-])c2ccccc12	-4	i	0	5	-11	-12	-3	-9
O=S(=O)(c1ccccc1)N1CC1c1ccccc1 (stereo not given)	1	i	15	-17	-7	nt	-2	4
Cc1ccc(NC(=O)[C@@H](NC(=O)N2C[C@H]3C[C@@H](C2)c2cccc(=O)n2C3)C(C)C)cc1	5	nt	-9	nt	-13	-17	4	7
Cc1cc(S(=O)(=O)NCc2ccccc2)ccc1OCC(=O)N1CCN(C)CC1	-5	i	-6	nt	0	9	-2	-3
C[C@]12CCC3C(CC[C@H]4C[C@@H](O)CC[C@]34C)C1C[C@@H](O)C2=O (stereo not given in full)	nt	nt	nt	-23	-16	8	0	0
Cc1cc2c(C(F)(F)F)cc(=O)oc2c2c1NCCC2	?	nt	?	nt	29	-5	-266	2
CCn1cc(C=C2C(=O)NC(=O)NC2=O)c2ccccc21	?	i	?	-8	-9	-23	-12	4
COc1cc(/C=C(/C)[N+](=O)[O-])ccc1OCc1ccccc1Cl	-4	i	-1	nt	78*	-6	-21	-36
C=CCn1c(O)c(C(CC)=Nc2ccc(NC(C)=O)cc2)c(=O)[nH]c1=O	4	i	6	-35	-5	nt	-2	3

The list continues.
SMILES	eIF4H inh	Rce1 inh	PABP polyA inh	HIV Env fusion	CSC inhib	Yeast UUG start	MT1-MMP act inh	MT1-MMP act inh RFP	others
C=CCn1c(O)c(C(CC)=NC2CC2)c(=O)[nH]c1=O	0	i	2	-47	-6	-18	2	3
COc1ccc(C(=O)N2CCOCC2)cc1S(=O)(=O)N1CCC(C)CC1	-3	i	-6	-108	-21	-29	0	-1
Clc1ccc(NC2=NCCCS2)cc1Cl	-3	i	-11	8	-4	-7	0	-4
COc1ccc(CCN(C)Cc2c(F)cccc2F)cc1OC	-4	i	14	-11	nt	-11	-1	4
Cc1cc(S(=O)(=O)NCC(C)C)ccc1OCC(=O)N1CCN(Cc2ccccc2)CC1	1	i	4	nt	7	-5	0	-13
O=C(Cc1ccccc1)N1CCN(Cc2cccc(Cl)c2)CC1	19	i	27	19	37	5	-1	0
O=C(CCC(=O)N1CC2C[C@@H](C1)Cn1c2cccc1=O)NCCc1ccccc1F	-13	i	4	nt	-2	5	5	6
CC(O)CNc1ccc([N+](=O)[O-])c2cccnc12 (stereo not given)	-1	i	-2	-420	-5	nt	4	3
CCCCC1(CCC)C(=O)NC(=S)NC1=O	nt	nt	nt	-2	nt	-10	-4	1
COC(=O)c1cc2c(s1)=NC=NP=2(N1CCOCC1)N1CCOCC1	-8	i	-4	-29	-12	-14	0&-3	5&0
O=S(=O)(NC1CN2CCC1CC2)c1ccc(Cl)cc1 (stereo not given)	-3	i	3	-2	-7	-12	-1	1
CCOC(C(=O)OCCCN(CC)CC)(c1ccccc1)c1ccccc1	5	i	-1	nt	-12	0	-6	-2
Cc1nc2ccccc2c(=O)n1-c1cc([N+](=O)[O-])cc([N+](=O)[O-])c1	9	i	-5	13	-1	-14	5	2
Cc1c(N=Nc2c(O)n(C)c(=O)n(C)c2=O)c(=O)n(-c2ccccc2)n1C	4	i	-2	-7	0	nt	-3	2
COC(=O)C1=C(c2ccc(S(C)(=O)=O)cc2)C[C@@H]2CC[C@H]1N2C(=O)NCCNC(C)=O	nt	i	nt	2	10	-13	3	6
COc1ccc(CCN)cc1O	nt	i	nt	40	-2	-14	6	4

Screening data from PubChem BioAssay.
